CtBP-E1A blk = blocks the CtBP interaction with E1A | AlphaScreen GST-E1A/His-CtBP binding, 1536-well; active compounds read low; control for the full effect not named in the record | activity change, % (test concentration not listed) | hit rate 0.49% among 340,000; in the data active means activity change below about -65%; inconclusive means about -30% to -65%; inactive means above about -30%; also: % is scaled to controls: 0 for no effect and ±100 for the full control effect
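GST-E1A and His-tagged CtBP (125 nM each as 5X stock) were preincubated with pin-transferred compound for 2 h at 37 °C in the dark, then glutathione donor and nickel acceptor beads were added for 1 h before AlphaScreen reading.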
gsp antag = gsp mutant antagonism. gsp-mutant cells, cAMP HTRF, 30 min; control for the full effect not named in the record. Potency, µM (highest dose often 76.9 µM), without a hit: top-dose activity change, negative = inhibition, hits mostly inhibitors. hit rate 0.4% among 340,000. AID 624288; active = falling curve of any shape with a large fitted effect; inconclusive = falling curve, mostly with a smaller effect; inactive = flat or rising curve; cell line not stated here;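 also: intracellular cAMP measured with PDE inhibitor Ro 20-1724 present during compound exposure; potency is read from the fitted curve at half-maximal effect; % is scaled to controls: 0 for no effect and ±100 for the full control effect; nearly all actives have a fitted effect of over 65% in size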
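HTRF cAMP measurement after 30 min RT detection following 30 min, 37C compound treatment alongside […] (added as 300 uM solution) in G418-selected cells seeded at 2000/well and grown 16–24 h.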
Sfp inh = blocks B. subtilis Sfp PPTase activity | Q9F4F7 | Potency, µM, inactives show max response, negative = inhibition, hits mostly inhibitors | hit rate 3.5% among 310,000 | Biochemical Sfp PPTase activity, qHTS; active = well fitted inhibition curve with a large enough effect; inconclusive = small, poorly fitted or top-dose-only effect, or another doubt; inactive = no such curve, though single readings can be large or run the other way;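 also: the enzyme is Sfp with the accession as filed and its product quenches rhodamine fluorescence; potency is read from the fitted curve at half-maximal effect; 0% = enzyme reaction without inhibitor and -100% = no enzyme wells; top concentration of the series not given in the record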
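Fluorescence-quenching assay with 15 nM Sfp, 5 uM rhodamine-CoA and 12.5 uM BHQ-2-labelled ybbR peptide in pH 7.6 Hepes/MgCl2 buffer. Enzyme was pre-incubated with compound for 15 min at room temperature. Rate was taken from the 30-min fluorescence change (525/598 nm).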
Menin MLL FP FL = menin-MLL binding inhibition, fluorescein peptide; 290,000 tested, under 10 active; AID 1766; Fluorescence polarization, fluorescein-MLL peptide displacement from menin; FP activity change, % at 61.4 µM; inconclusive = falling polarisation curve, or a change in total fluorescence; inactive = total fluorescence flat and polarisation flat or rising; no compound was filed as active; the % refers to the polarisation; negative = inhibition;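 also: % of control where 0% means no effect; inhibitors lower the polarisation; unlabelled MLL peptide was the positive control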
ClpP mod = qHTS Assay for Activators of ClpP; purified B. subtilis ClpP, FRET peptide cleavage, 20 min; Potency, µM (top dose mostly 57.5 µM), without a hit: top-dose activity change, negative = active; ATP-dependent Clp protease proteolytic subunit (Bacillus subtilis (strain 168)), P80244; hit rate 1.9% among 340,000; active = well fitted falling curve with a large enough effect; inconclusive = small, poorly fitted or top-dose-only effect; inactive = no such curve, though single readings can be large or run the other way; also: potency is read from the fitted curve at half-maximal effect; the source files actives as falling curves though it sought activators and does not explain the sign; nearly all actives have a fitted effect of over 65% in size; many hits overshoot -100%
Target sequence (P80244 whole entry, looked up): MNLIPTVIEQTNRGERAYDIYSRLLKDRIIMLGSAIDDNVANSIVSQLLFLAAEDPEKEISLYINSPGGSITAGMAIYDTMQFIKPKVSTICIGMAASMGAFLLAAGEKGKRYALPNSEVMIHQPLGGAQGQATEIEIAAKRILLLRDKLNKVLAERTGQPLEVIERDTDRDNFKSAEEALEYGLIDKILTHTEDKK
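ClpP 10 microg/mL final, pH 8 Tris/KCl buffer with BSA, glycerol, Tween-20; compound pinned in; FRET-FV substrate; RT 20 min; Ex320/Em430; ΔFRET vs ADEP 5.8 microM, DMSO, no enzyme.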
TRPV1 PAM = enhances activation of the human vanilloid receptor TRPV1 | hit rate 0.02% among 320,000 | TRPV1-expressing cells, Fluo-8 calcium influx, capsaicin EC20 potentiation; host cell line not named in the record; control for the full effect not named in the record | potentiation, % at 8.33 µM | Q8NER1; active means potentiation above 80%; inconclusive means 30% to 80%; inactive means below 30%; also: 0% is about no effect
Target sequence (Q8NER1 whole entry, looked up): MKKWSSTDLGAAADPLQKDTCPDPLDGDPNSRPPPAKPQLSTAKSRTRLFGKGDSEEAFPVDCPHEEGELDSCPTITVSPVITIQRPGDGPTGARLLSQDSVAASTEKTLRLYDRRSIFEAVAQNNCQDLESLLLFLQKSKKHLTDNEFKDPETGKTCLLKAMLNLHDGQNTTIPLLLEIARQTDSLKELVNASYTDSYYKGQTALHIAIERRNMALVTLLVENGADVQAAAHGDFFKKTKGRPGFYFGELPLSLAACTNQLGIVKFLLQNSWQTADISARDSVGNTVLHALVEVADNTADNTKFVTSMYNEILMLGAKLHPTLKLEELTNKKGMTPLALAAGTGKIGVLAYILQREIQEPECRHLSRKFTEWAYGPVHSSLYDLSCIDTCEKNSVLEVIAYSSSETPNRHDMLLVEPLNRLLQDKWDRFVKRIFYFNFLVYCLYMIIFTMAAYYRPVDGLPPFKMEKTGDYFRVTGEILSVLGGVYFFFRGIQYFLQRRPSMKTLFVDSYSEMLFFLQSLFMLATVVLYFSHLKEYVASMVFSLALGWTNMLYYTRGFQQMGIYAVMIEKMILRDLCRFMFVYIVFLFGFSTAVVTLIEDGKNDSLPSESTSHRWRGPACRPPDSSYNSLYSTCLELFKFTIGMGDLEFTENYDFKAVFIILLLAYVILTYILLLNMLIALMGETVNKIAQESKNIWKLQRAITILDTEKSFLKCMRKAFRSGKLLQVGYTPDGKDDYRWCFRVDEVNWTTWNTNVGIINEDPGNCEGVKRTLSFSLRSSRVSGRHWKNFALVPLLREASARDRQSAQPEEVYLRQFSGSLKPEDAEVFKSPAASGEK
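Fluo-8 calcium influx in TRPV1-expressing cells, kinetic read (ex 480/em 520 nm). Compound added and read 3 min for agonist activity, followed by capsaicin at EC20 final and 2 min further read for enhancement.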
gsp ag = activates gsp, the McCune-Albright syndrome mutation | gsp mutant cells, cAMP HTRF, 30 min; control for the full effect not named in the record | Potency, µM (titrated, usually from 76.9 µM), without a hit: at the top dose activation (cAMP increase), most hits filed as activators | hit rate 0.13% among 340,000; active = well fitted activation curve with a large enough effect; inconclusive = small, poorly fitted or top-dose-only effect, or another doubt; inactive = no such curve, though single readings can be large or run the other way; cell line not stated here;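 also: phosphodiesterase inhibitor Ro 20-1724 added with compounds to block cAMP breakdown; potency is read from the fitted curve at half-maximal effect; nearly all actives have a fitted effect of over 60% in size; about a fifth of the inactives were tested at one dose only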
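Cells in DMEM/10% FBS with G418 were pretreated with compounds in DMSO plus […] (300 uM stock) for 30 min at 37C. cAMP was measured by HTRF (cAMP-d2 plus anti-cAMP antibody-K) after 30 min at room temperature.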
Numbers without * were called inactive; ? = inconclusive; . = not tested or not shown; & = joins results of further samples; [ ] = another dose, or the depositor's remark. An excerpt, so the mix of outcomes need not match the whole.

SMILES	CtBP-E1A blk	gsp antag	Sfp inh	Menin MLL FP FL	ClpP mod	TRPV1 PAM	gsp ag
COc1ccc(C(O)c2cc(OC)ccc2OP(=O)(N(C)C)N(C)C)cc1 (stereo unspecified)	2	11%	16%	1.8	1.1%	4	-29%
Nc1ccccc1C(=O)OCC(=O)N1CCc2ccccc21	-2	6%	21%	1.9	-0.4%	7	-5%[15.4 µM]
COC(=O)C1=C(c2ccc(F)cc2OCc2ccccc2)C[C@@H]2CC[C@H]1N2C(=O)NCc1ccc(Cl)cc1	-11	-8%	.	.	-4.2%	6	?
COC(=O)C1=C(c2ccc(OC)c(OC)c2)C[C@@H]2CC[C@H]1N2C(=O)N1CCC(O)CC1	3	5%	.	.	0.3%	2	.
O=C(NCC1=C(c2ccc3ccccc3c2)C[C@@H]2CC[C@H]1N2Cc1ccco1)c1nccs1	-9	.	.	.	-1.4%	.	-59%[inhibitor]
CC(=O)C1=C(O)C2(C)c3c(O)c(C)c(O)c(C(C)=O)c3OC2CC1=O (stereo unspecified)	0	.	.	.	-0.8%	.	-50%[inhibitor]
CCCC(C)C1(CC)C(=O)NC(=Nc2ccccc2)NC1=O (stereo unspecified)	-3	?	9%	6.4	-0.6%	-12	-24%
OC1(c2ccc(F)cc2)CC2CCC(C1)N2Cc1nnnn1C1CCCC1 (stereo unspecified)	3	2%	15%	0.0	2.0%	2	-13%
O=C1CCCC2=C1C(c1cccnc1)Nc1ccccc1N2 (stereo unspecified)	4	16%	11%	1.4	-1.7%	6	27%
Cc1cc(O)c(CN2CC=C(c3ccccc3)CC2)cc1C(C)C	-9	-4%	-3%	4.9	.	-8	-3%
CN(C)CCN(CC1CCCN(Cc2ccccc2F)C1)C(=O)Cc1ccc(F)c(F)c1 (stereo unspecified)	.	1%	12%	2.9	0.1%	-5	-2%
C[C@H](CO)N1C[C@H](C)[C@H](CN(C)C(=O)c2ccncc2)OCc2ccccc2-c2c(n(C)c3ccccc23)C1=O	4	.	.	.	0.2%	.	?
C[N+]1(C)CCOC(O)(c2ccc(-c3ccc(C4(O)C[N+](C)(C)CCO4)cc3)cc2)C1 (stereo unspecified)	-17	3%	13%&8%	4.7&1.9	-3.8%	0	.
Cc1ccc(C2(O)CCN3CCCCC32)cc1 (stereo unspecified)	0	4%	-8%	3.9	-1.9%	1	-37%[inhibitor]
C=CCN1C(=O)NC(=O)/C(=C/c2ccoc2)C1=O	15	-8%	-29%	?	-3.6%	-3	?
CN1CCC2(O)OCCCC2C1 (stereo unspecified)	1	17%	16%	-3.7	.	5	-6%
CCOc1cc(C(=O)N2CCC3(CC2)OCCO3)cc(OCC)c1OCC	8	0%	5%	1.2	2.3%	-23	2%
Cc1ccc(-n2c(O)c(/C=N/c3ncc(Br)cc3Br)c(=O)[nH]c2=O)cc1	2	-4%	-10%	11	.	6	-2%[15.4 µM]
COc1cccc(C(=O)N2CCN(Cc3ccccn3)CC2)c1OC	?	-4%	79µM*	5.1	0.5%	6	-14%
COC(=O)c1cccc(N=Cc2c(O)n(Cc3ccc(F)cc3)c(=O)[nH]c2=O)c1	5	2%	13%	2.7	.	0	-17%
CCC(=NCCCO)c1c(O)n(-c2ccc(OC)cc2)c(=O)[nH]c1=O	6	7%	9%	3.4	1.9%	-14	5%
COC(=O)C1=C(c2cc3ccccc3s2)C[C@@H]2CC[C@H]1N2C(=O)NCc1ccc(F)cc1	-15	-27%	.	.	-7.4%	.	?
C=CCn1c(O)c(C=Nc2ccc(N(CC)CC)cc2)c(=O)[nH]c1=O	3	6%	-7%	?	-1.0%	2	-6%
CCC1(CC)C(=O)C=CNC1=O	5	-5%	13%&-3%	1.4	1.0%	9	.
CC(=O)O[C@@]12CO[C@@H]1C[C@H](O)[C@@]1(C)C(=O)[C@H](O)C3=C(C)[C@@H](O)C[C@@](O)([C@@H](OC(=O)c4ccccc4)C12)C3(C)C (stereo partly specified)	5	11%	0%	-11	-1.6%	11	.

Some of these compounds in order of length of the SMILES, highest first.
SMILES	CtBP-E1A blk	gsp antag	Sfp inh	Menin MLL FP FL	ClpP mod	TRPV1 PAM	gsp ag
C[C@H](CO)N1C[C@H](C)[C@H](CN(C)C(=O)c2ccncc2)OCc2ccccc2-c2c(n(C)c3ccccc23)C1=O	4	.	.	.	0.2%	.	?
COC(=O)C1=C(c2cc3ccccc3s2)C[C@@H]2CC[C@H]1N2C(=O)NCc1ccc(F)cc1	-15	-27%	.	.	-7.4%	.	?
C[N+]1(C)CCOC(O)(c2ccc(-c3ccc(C4(O)C[N+](C)(C)CCO4)cc3)cc2)C1 (stereo unspecified)	-17	3%	13%&8%	4.7&1.9	-3.8%	0	.
O=C(NCC1=C(c2ccc3ccccc3c2)C[C@@H]2CC[C@H]1N2Cc1ccco1)c1nccs1	-9	.	.	.	-1.4%	.	-59%[inhibitor]
COC(=O)c1cccc(N=Cc2c(O)n(Cc3ccc(F)cc3)c(=O)[nH]c2=O)c1	5	2%	13%	2.7	.	0	-17%
CC(=O)C1=C(O)C2(C)c3c(O)c(C)c(O)c(C(C)=O)c3OC2CC1=O (stereo unspecified)	0	.	.	.	-0.8%	.	-50%[inhibitor]
COc1ccc(C(O)c2cc(OC)ccc2OP(=O)(N(C)C)N(C)C)cc1 (stereo unspecified)	2	11%	16%	1.8	1.1%	4	-29%
OC1(c2ccc(F)cc2)CC2CCC(C1)N2Cc1nnnn1C1CCCC1 (stereo unspecified)	3	2%	15%	0.0	2.0%	2	-13%
COc1cccc(C(=O)N2CCN(Cc3ccccn3)CC2)c1OC	?	-4%	79µM*	5.1	0.5%	6	-14%
C=CCN1C(=O)NC(=O)/C(=C/c2ccoc2)C1=O	15	-8%	-29%	?	-3.6%	-3	?
Cc1ccc(C2(O)CCN3CCCCC32)cc1 (stereo unspecified)	0	4%	-8%	3.9	-1.9%	1	-37%[inhibitor]
CN1CCC2(O)OCCCC2C1 (stereo unspecified)	1	17%	16%	-3.7	.	5	-6%

New compounds follow
SMILES	CtBP-E1A blk	gsp antag	Sfp inh	Menin MLL FP FL	ClpP mod	TRPV1 PAM	gsp ag
CCOC(=O)c1c(-n2c(C)cc(C=C3C(=O)NC(=S)NC3=O)c2C)sc2c1CCCC2	-2	-18%	18µM*	?	4.2%	-11	-17%
CC12CCC(=O)C=C1CC(O)C1C2CCC2(C)C1CCC2(C)O (stereo unspecified)	6	0%	.	.	.	.	-49%
CCCCn1c(O)c(C(CC)=NCc2ccc3c(c2)OCO3)c(=O)[nH]c1=O	-8	-20%	0%	6.3	-1.4%	5	12%
Cc1cc2ccccn2c1C(C[N+](=O)[O-])c1c(F)cccc1Cl (stereo unspecified)	0	-22%	-16%	3.7	8.9%	-4	-34%[inhibitor]
CC(C)c1ccc(C2N3CCCN23)cc1 (stereo unspecified)	0	5%	-6%	0.0	1.2%	1	2%
O=C(Nc1nccs1)C(Cl)(Cl)Cl	0	.	5%	-0.3	.	-1	16%[15.4 µM]
Cc1cc(C)[n+](C2C3CC4CC(C3)CC2C4)o1 (stereo unspecified)	9	6%	8%	-5.7	-5.9%	6	-2%[15.4 µM]
O=C(Nc1nnc(-c2ccco2)o1)c1cccc2ccccc12	-14	5%	22%	-0.6	0.4%	15	-119%[inhibitor]
O=c1[nH]c(O)c(C=Nc2ccc(F)c(Cl)c2)c(=O)[nH]1	-5	11%	-3%	3.5	-3.9%	0	-19%
COC(=O)C1=C(c2ccc(C(C)=O)cc2)C[C@@H]2CC[C@H]1N2C(=O)N1CCCC1	8	9%	.	.	2.4%	-5	4%
Clc1cccc(N2CCNCC2)c1Cl	7	10%	16%	-1.0	1.9%	1	0%
Cc1c2cnn(CC(=O)N3CCC4(CC3)OCCO4)c(=O)c2c(C)n1Cc1cccc(Cl)c1	-20	-4%	-13%	0.3	-21%	2	?
Cc1nc(Cl)sc1C(=O)Nc1ccc2ccccc2c1	-1	-23%	0%	4.9	1.5%	-14	2%[15.4 µM]
COc1ccccc1N1CCN(CCc2c[nH]c3cc4c(cc23)OCO4)CC1	5	0%	.	.	-24%	.	?
O=C(c1ccccc1)c1cn(CC(=O)N2CCOCC2)c2ccccc12	9	8%	13%	-0.1	-0.6%	-7	-5%
CCOC(=O)[C@]12Cc3ccccc3[C@H]1N(Cc1ccccc1)C(=O)c1ccccc12	.	1%	.	.	-0.2%&-2.1%	.	4%
CCn1ccnc1CN1CCCC(C(=O)c2ccc(OC)cc2OC)C1 (stereo unspecified)	4	0%	0%	-6.3	.	24	3%
CCOC(=O)C1(CCCc2ccccc2)CCN(C2CCC2)CC1	-4	3%	-9%	0.8	.	17	8%[15.4 µM]
COC(=O)C[C@]1(C(=O)OC)CN(C#N)N(c2ccc(Cl)cc2)C12c1ccccc1-c1ccccc12	13	16%	8%	3.9	-5.7%	4	-4%[15.4 µM]
Cc1nc2ccccc2c(=O)n1-n1cnnc1	4	-3%	6%	1.4	0.1%	7	-8%
COc1ccc(O)c2c(=O)c3c(OC)cc4c(c3oc12)C1C=COC1O4 (stereo unspecified)	-8	-10%	-7%	3.0	0.9%	13	-40%[inhibitor]
Cc1cc(C=C2C(=O)N(C)C(=S)N(C)C2=O)c(C)n1C1CCCCC1	1	-6%	?	?	1.1%	6	-6%
CN1C(=O)C(=Cc2ccc(Sc3ccccc3)o2)C(=O)N(C)C1=O	4	10%	6%	14	.	-4	-4%[15.4 µM]

From PubChem BioAssay
